KCNQ2 enhance: KCNQ2 (rat) channel potentiation. CHO-K1 KCNQ2, FluxOR thallium flux fluorescence; hits give high values. B-score at 10 µM. 0.54% of 310,000 active;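 active means fluorescence ratio B-score at least 3 SD of library B-scores, with initial fluorescence B-score within 3 SD, cut at about 5.3 in these data; same plate scores as AID 2156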;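 further: B-score of peak minus minimum over baseline fluorescence ratio after K+ and Tl+ stimulus; positive B-score means potentiation of KCNQ2 with more thallium influx and brighter signal; only the inactives scoring about 0 or higher are listed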
Target sequence (O88943 whole entry, looked up): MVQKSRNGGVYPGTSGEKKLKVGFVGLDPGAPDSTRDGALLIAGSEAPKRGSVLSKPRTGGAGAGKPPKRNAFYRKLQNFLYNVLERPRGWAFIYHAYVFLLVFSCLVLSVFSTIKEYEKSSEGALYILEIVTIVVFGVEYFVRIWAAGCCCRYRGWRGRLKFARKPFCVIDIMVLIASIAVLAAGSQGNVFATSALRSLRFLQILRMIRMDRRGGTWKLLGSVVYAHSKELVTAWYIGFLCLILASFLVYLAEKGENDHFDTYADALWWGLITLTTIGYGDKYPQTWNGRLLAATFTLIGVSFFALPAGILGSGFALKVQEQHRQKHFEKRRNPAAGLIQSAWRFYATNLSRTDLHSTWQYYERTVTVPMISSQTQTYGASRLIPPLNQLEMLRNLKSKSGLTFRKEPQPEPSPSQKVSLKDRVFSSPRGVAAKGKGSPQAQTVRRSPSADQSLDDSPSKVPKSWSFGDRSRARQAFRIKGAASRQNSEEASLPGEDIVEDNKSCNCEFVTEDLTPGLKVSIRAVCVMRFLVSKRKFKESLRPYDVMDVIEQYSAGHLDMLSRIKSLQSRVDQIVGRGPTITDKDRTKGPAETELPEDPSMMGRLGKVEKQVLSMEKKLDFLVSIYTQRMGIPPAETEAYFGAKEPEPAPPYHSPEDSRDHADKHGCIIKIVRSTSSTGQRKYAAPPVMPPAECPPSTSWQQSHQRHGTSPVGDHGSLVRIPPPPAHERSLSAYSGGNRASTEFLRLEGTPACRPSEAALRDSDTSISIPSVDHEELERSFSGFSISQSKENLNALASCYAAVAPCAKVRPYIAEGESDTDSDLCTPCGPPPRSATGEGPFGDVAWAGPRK
KCNQ2 enhance baseline: second read-out of KCNQ2 enhance, no call of its own (marks repeat the call); B-score; compound at 10 µM; measured here: initial fluorescence intensity artifact check;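 brightness before thallium and not channel activity; 0 = typical well and far values either way flag optical interference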
Starred values were filed as active, the others as inactive; . = not tested or not shown.

SMILES	KCNQ2 enhance	KCNQ2 enhance baseline
Clc1cccc(CN2CCN(Cc3ccco3)CC2)c1	0.02	-0.65
COC(=O)CC1C(=O)NCCN1C(=O)Nc1ccccc1 (stereo not given)	1.9	-1.8
Cc1ccc(-n2ncc3c2CC(C)(C)CC3NC(=O)c2ccncc2)cc1 (stereo not given)	0.58	-0.02
Cc1ccc(C(=O)CSc2ccccc2C(=O)O)cc1	0.6	-0.62
CCN(NC(=O)C(O)(c1ccccc1)c1ccccc1)C(=O)c1ccccc1	0.56	-0.03
Oc1ccc(/C=N/NC(=S)N/N=C/c2ccc(O)cc2)cc1	0.52	0.52
COc1ccccc1NS(=O)(=O)c1ccccc1C#N	0.14	-0.04
N#CC1=C(N)OC2=C(C(=O)CCC2)C1c1ccccc1 (stereo not given)	0.41	2.4
CCOC(=O)c1sc(C)c2c1NC(C)(c1cccs1)NC2=O (stereo not given)	0.68	-0.15
Nc1ncc([N+](=O)[O-])cc1S(=O)(=O)c1ccccc1	0.05	2.5
CCCCNC(=O)c1cc(C)nc2ccccc12	0.03	-0.43
CCCN1CCN(CC(=O)Nc2nnc(C)s2)CC1	0.88	-1.6
COC(=O)c1cccc(NC(=O)CSc2nnc(COc3cccc(C)c3)n2C)c1	1.7	0.11
COc1ccc(OC)c(CN2C(=O)CCC2(C)C(=O)NC2CCCCCC2)c1 (stereo not given)	0.03	-0.88
Cc1cc(C(=O)CN2CCC(C)CC2)c(C)n1-c1ccccc1F	2.5	-0.02
CCN(CC)S(=O)(=O)c1cc(NC(=O)c2cccc(N3C(=O)CCC3=O)c2)ccc1Cl	1.7	-0.93
COc1ccc(Cl)cc1NC(=O)C1CCCN(c2cc(C)nc3ncnn23)C1 (stereo not given)	1	1.1
O=C(Cn1cnc2c(cnn2-c2ccc(Cl)cc2)c1=O)N1CCN(c2ccccc2)CC1	1.4	0.25
O=C(NCC(c1ccco1)N1CCN(c2ccccc2F)CC1)C(=O)NC1CCCC1 (stereo not given)	0.33	0.53
CCOc1ccc(-n2nnc3c(=O)n(CC(=O)N4CCCc5ccccc54)cnc32)cc1	0.66	-1.3
NC(=O)N/N=C/C=C/c1ccccc1	0.05	-0.79
Cc1ncoc1C(=O)N1CCCC(C(=O)c2ccc(-c3ccccc3)c(F)c2)C1 (stereo not given)	0.27	-0.68
Cc1nnc(Cl)c2nn(-c3ccccc3)c(C)c12	0.4	0.43
Cc1c2cnn(CC(=O)N3CCOCC3)c(=O)c2c(C)n1Cc1ccccc1F	0.1	-0.45
O=C(COC(=O)CCC(=O)c1ccccc1)NCCc1ccccc1	0.01	-0.17
CC(C)(C)C(=O)COC(=O)CCc1nc2ccccc2[nH]c1=O	0.04	-0.05
COc1ccc(S(=O)(=O)Cc2ccc(C(=O)N3CCCC3)o2)cc1	1.5	0.03
O=C(O)C(CO)(c1ccccc1)c1ccccc1	1.4	1.6
COc1ccccc1CNC(=O)CSc1ccc(C(=O)Nc2ccccc2OC)cc1[N+](=O)[O-]	1.2	1.4
CSc1ccc(C(=O)C2CCCN(Cc3ccc(N4CCNC4=O)cc3)C2)cc1 (stereo not given)	1.1	-0.36
O=c1[nH]c(CSc2nnc(-c3ccncc3)n2Cc2ccco2)nc2ccccc12	0.81	-0.24
Brc1cccc(CNCCCN2CCOCC2)c1	0.38	1.6
C#CCOCCOCCOCCNc1nc(N2CCN(C(=O)[C@H](Cc3ccc(O)cc3)n3cc(CCO)nn3)CC2)nc(N2CCN(C(=O)[C@H](Cc3ccc(O)cc3)n3cc(CCO)nn3)CC2)n1	0.99	1
Cc1nc([N+](=O)[O-])cn1CCCCN1C(=O)c2ccccc2C1=O	2.7	-0.78
O=C(CSc1nnc(CNc2ccc(F)cc2)o1)c1ccccc1	0.03	0.7
CCCc1nc(SCC(=O)NC2CC2)c2c(C)c(C)sc2n1	1.7	1.9
O=C(O)c1ncc(Cl)c(Cl)c1Cl	0.12	.
O=[N+]([O-])c1cccn2cc(-c3ccc(Br)cc3)nc12	0.16	0.98
COC(=O)c1cc2c(ccn2-c2ccc(F)cc2)n1Cc1cccc(OC)c1	0.81	-1.4
O=C(c1[nH]ncc1-c1ccc(Cl)cc1)C1CO1 (stereo not given)	0.2	-1.7
CN1/C(=C\C=N\O)C(C)(C)c2ccccc21	0.58	-0.19
O=C(O)CCCNc1cc(N2CCN(C(=O)c3ccco3)CC2)c2noc3c2c1C(=O)c1ccccc1-3	1.4	-1.3
O=C(CSc1n[nH]c(-c2ccccc2)n1)c1ccccc1	1.7	0.6
COC(=O)n1c(SC)nc2ccccc21	2.9	-2
COc1ccccc1C(=O)N1CCN(C(=O)Cc2ccccc2)CC1	1.1	1.1
CN1CCN(CCCNC(=O)C2CC(=O)N(C3CCCCC3)C2)CC1 (stereo not given)	0.63	0.05
Cc1nnc(SCc2cccc(Cl)c2)n(N)c1=O	1.1	0.14
CCCCn1c(N)c(N(CCC(C)C)C(=O)c2ccc(N3CCCC3=O)cc2)c(=O)[nH]c1=O	0.9	-0.49
CCOC(=O)c1cc(/C(C)=N/OC(=O)c2ccc(C(C)(C)C)cc2)on1	0.25	1.2
COc1cc(/C=N/NC(=O)Cc2cccs2)c([N+](=O)[O-])cc1OC	1.9	0.99
CCOCCCn1c(=S)[nH]c2cc(C(=O)NCCCN(CC)CC)ccc2c1=O	1.1	-0.04
Cc1ccc(-c2csc(NCCc3nc4cc(Cl)c(Cl)cc4n3CCCO)n2)cc1	1.4	0.61
NS(=O)(=O)c1cccc(NC(=O)c2ccccc2NS(=O)(=O)c2ccc(F)cc2)c1	0.01	-1.1
O=C(c1cc(-c2ccc(Cl)c(Cl)c2)on1)N1CCCCC1	1.1	0.61
Cc1ccc(NC(=O)C[n+]2ccccc2)cc1C	0.86	-0.18
COCC(C)NC(=O)COCc1cc(-c2ccc3c(c2)OCO3)on1 (stereo not given)	0.61	1.9
O=[N+]([O-])c1ccc(Sc2ccccc2Cl)nc1	2	2.2
CCOc1ccccc1NC(=O)Nc1cccc(S(N)(=O)=O)c1	0.63	-0.25
NC(=O)[C@H]1CC2(CC(c3cccc(NC(=O)COc4ccc(Cl)cc4)c3)=NO2)CN1C(=O)Cc1ccc([N+](=O)[O-])cc1 (stereo not given in full)	0.06	-1.1
COc1ccc(/C=C/c2nnc(NC(=O)COc3cccc(C)c3)s2)cc1	0.18	-1.2

More records.
SMILES	KCNQ2 enhance	KCNQ2 enhance baseline
O=C(CSc1ccccc1)NCCc1ccccc1	0.53	-0.41
COc1ccccc1-c1cn[nH]c(=S)n1	0.32	2.6
CC1CCCCN1S(=O)(=O)c1ccc(S(=O)(=O)N(CC(=O)Nc2ccccc2)Cc2cccs2)cc1 (stereo not given)	0.18	-1.6
COc1cccc(OC)c1C(=O)Nc1ccncc1	0.67	1.6
C/C(=N/NC(=O)CNc1ccc(C)cc1)c1ccc(Br)s1	0.3	0.26
Cc1cc(C(C)(C)C)cc(S(=O)(=O)Nc2cccc(C(=O)O)c2)c1C	1.3	-0.24
COC(=O)C(C)n1cnc2c(cnn2-c2ccc(Cl)cc2)c1=O (stereo not given)	1.7	0.93
CCOC(=O)C1(CCOC)CCN(C/C=C/c2ccccc2OC)CC1	2.5	0.43
Cc1ccccc1C(=O)Nn1cnnc1	0.74	-0.87
COCCCN1C(=O)C(=O)/C(=C(/O)c2ccc(OC)cc2)C1c1ccc(O)c(OC)c1 (stereo not given)	0.43	1.8
Oc1ccc(Cl)cc1-c1cc(-c2cccc(Br)c2)n[nH]1	1.9	-0.24
COc1ccc(/C=N/NC(=O)c2ccc(Br)cc2)cc1CN1CCOCC1	0.51	0.67
CC(=O)NC12CC3CC(C1)CC(C(=O)Nc1nccs1)(C3)C2	0.15	-0.25
CCOc1ccc(NC(=O)c2ccccc2NC(=O)CN(C)CC(=O)Nc2ccc(C)cc2)cc1	0.61	0.1
O=C1c2ccc(-c3nc4ccccc4o3)cc2C(=O)N1Cc1cccnc1	0.02	-0.32
COC(=O)c1ccc2nc(NC(=O)CCS(=O)(=O)c3ccccc3)sc2c1	0.8	-0.82
CC(=O)CCC(=O)N1CCCC(CNC(=O)c2ccc(-c3ccccc3)cc2)C1 (stereo not given)	2	-0.91
Cc1c(NC(=O)CSc2n[nH]c(=O)n2-c2ccccc2)c(=O)n(-c2ccccc2)n1C	0.01	0.88
O=C(O)CCN1C(=O)C2C3CC(C2C1=O)C1C(c2ccccc2)c2sc(=O)[nH]c2SC31 (stereo not given)	0.49	-1.1
COc1ccc(OCCn2cc(C=O)c3ccccc32)cc1	1.9	0.32

Nothing new here: entries from further up.
SMILES	KCNQ2 enhance	KCNQ2 enhance baseline
CC(=O)NC12CC3CC(C1)CC(C(=O)Nc1nccs1)(C3)C2	0.15	-0.25
CCOc1ccc(NC(=O)c2ccccc2NC(=O)CN(C)CC(=O)Nc2ccc(C)cc2)cc1	0.61	0.1
O=C1c2ccc(-c3nc4ccccc4o3)cc2C(=O)N1Cc1cccnc1	0.02	-0.32

New compounds follow:
SMILES	KCNQ2 enhance	KCNQ2 enhance baseline
CCCCn1c(CN2CCN(c3ccc(F)cc3)CC2)nc2c1c(=O)n(C)c(=O)n2C	0.9	0.72
CCN(C(=O)c1cc2c(=O)[nH]c3ccc(C)cc3c2s1)c1ccccc1F	13*	-0.76*
Cc1nnc(N/N=C/c2cc(C)n(-c3ccc(F)cc3)c2C)n1N	1.4	-0.73
Cc1ccc(OCc2cc(C(=O)N3CCc4[nH]cnc4C3c3ccccn3)no2)cc1C (stereo not given)	1.2	1.7
COc1ccc(N=C/C=C2/C=C(c3ccccc3)OC(C)(C)O2)cc1	0.87	-0.74
Cc1ccccc1OCc1nc(-c2ccc(NC(=O)c3ccc4c(c3)OCO4)cc2)no1	0.61	0.13
CCOc1ccc(NC(=O)COC(=O)c2cccnc2)cc1	0.13	0.93
O=C(Nc1ccncc1)Nc1cccc(C(F)(F)F)c1	0.83	2
CNC(=O)C12N=CNN=C1N(C)C(=O)N2C (stereo not given)	0.16	-0.9
Cc1nc(NC(=O)c2ccc(-c3cc4ccccc4oc3=O)cc2)ccc1Br	1.5	-1.5
CC(C)N1C(=S)SC2CS(=O)(=O)C=C21 (stereo not given)	1.7	1.6
O=C(OCc1nc2ccsc2c(=O)[nH]1)c1cccc(S(=O)(=O)N2CCOCC2)c1	0.73	-0.2
Cc1c(NC(=O)NC2CCCCC2)cccc1[N+](=O)[O-]	0.17	-0.01
COc1ccc(-n2nnc3c(=O)n(CC(=O)N4CCC(Cc5ccccc5)CC4)cnc32)cc1	0.8	0.03
N#Cc1c(-c2ccccc2)nc(N2CCN(Cc3ccccc3)CC2)[nH]c1=O	1	-0.71
O=C(O)CCCN=Cc1c(O)c2ccccc2oc1=O	1.1	-0.84
COc1ccc(/C=N/NC(=O)c2cccnc2)cc1CN1CCN(c2ccc(F)cc2)CC1	0.36	-1.4
Cc1ccc(OCC(=O)Nc2cccnc2Cl)cc1C	0.13	1
CC(=O)NCC(=O)NC(C(=O)Nc1ccc2c(c1)OCCO2)c1ccccc1 (stereo not given)	0.85	-0.1
Cc1c(C(=O)OC(C)C)sc(NC(=O)C2CCCO2)c1C(=O)OC(C)C (stereo not given)	1.1	-0.55

Part of the list above in order of molecular weight, lowest first.
SMILES	KCNQ2 enhance	KCNQ2 enhance baseline
CCN(C(=O)c1cc2c(=O)[nH]c3ccc(C)cc3c2s1)c1ccccc1F	13*	-0.76*
Cc1ccc(OCc2cc(C(=O)N3CCc4[nH]cnc4C3c3ccccn3)no2)cc1C (stereo not given)	1.2	1.7
Cc1nc(NC(=O)c2ccc(-c3cc4ccccc4oc3=O)cc2)ccc1Br	1.5	-1.5

Laid out differently: four of the compounds above
Below each compound – KCNQ2 enhance | KCNQ2 enhance baseline
COc1ccc(/C=N/NC(=O)c2cccnc2)cc1CN1CCN(c2ccc(F)cc2)CC1
  0.36 | -1.4
Cc1ccc(OCC(=O)Nc2cccnc2Cl)cc1C
  0.13 | 1
CC(=O)NCC(=O)NC(C(=O)Nc1ccc2c(c1)OCCO2)c1ccccc1 (stereo not given)
  0.85 | -0.1
Cc1c(C(=O)OC(C)C)sc(NC(=O)C2CCCO2)c1C(=O)OC(C)C (stereo not given)
  1.1 | -0.55

Next part
SMILES	KCNQ2 enhance	KCNQ2 enhance baseline
Cc1ccc(-c2cnn(-c3ccccc3)c2N)cc1	1.1	0.24
O=C(NCc1cccnc1)C1CCCN(S(=O)(=O)c2ccc(Br)cc2)C1 (stereo not given)	1.5	-0.32
COc1cc(C(=S)N2CCOCC2)cc(OC)c1OS(=O)(=O)c1ccc(Cl)cc1	0.47	-0.49
CCOC(=O)CC(=O)CSc1ncnc2c1nnn2-c1ccccc1	0.01	1.3
CCC(CC)C(=O)NCCCN1CCOCC1	0.49	0.97
O=C(CN1CCOCC1)Nc1ccccc1C(=O)O	0.71	-0.16
COc1ccc(OC)c2sc(Cl)nc12	0.17	-0.51
O=C(c1ccncc1)c1ccc([N+](=O)[O-])cc1	0.46	-0.83
Cc1cc(C)nc(NC2=NCC(=O)N2c2ccccc2)n1	0.43	-0.74
COc1cc(OC)cc(C2C(C#N)=C(N)Oc3n[nH]c(-c4cccnc4)c32)c1 (stereo not given)	0.86	0.26
S=C(Nc1ccc(N2CCOCC2)cc1)Nc1ccc2snnc2c1	0.68	0.1
CCC(=O)NC(=S)Nc1ccccc1C(=O)OC	1.9	-0.37
Cc1cccc(NC(=O)c2cccnc2Cl)n1	0.43	-1.5
CCSc1nnc(NC(=O)C2CCCCC2C(=O)O)s1 (stereo not given)	0.24	0.05
O=C(Nc1nc2ccc(F)cc2s1)c1ccccn1	16*	-0.98*
COc1cc(OC)cc(C(=O)N[C@H](C(=O)Nc2nc(-c3cc(OC)ccc3OC)cs2)C(C)C)c1	0.08	-2.2
Cc1c(O)c2ccccc2oc1=O	0.09	1.5

Screening results (PubChem BioAssay)

An excerpt; count on the stated rates, not on these rows.
